Lassa entry inh: qHTS for Inhibitors of binding or entry into cells for Lassa Virus. Lassa virus pseudotype entry inhibition, cell reporter; control for the full effect not named in the record. Potency, µM (doses to about 37.9 µM), for the others: at the top dose activity change, negative = inhibition, usual class: inhibitors. 300,000 compounds, 1.2% hits. AID 540256, 2011; active means well fitted inhibition curve with a large enough effect; inconclusive means small, poorly fitted or top-dose-only effect, or effect the other way; inactive means flat fitted curve, though single readings scatter; tested in HEK293 cells; further: on the % scale 0 is the no-effect control and ±100 the full control effect; nearly all actives have a fitted effect of over 50% in size; luciferase read-out
MARV entry inh: qHTS for inhibitors of binding or entry into cells for Marburg Virus. 300,000 compounds, 1.8% hits. Potency, µM (series often up to 37.8 µM), for the others: at the top dose activity change, negative = inhibition, actives largely listed as inhibitors. Marburg virus pseudotyped entry inhibition, cell reporter; control for the full effect not named in the record; about a third of the inactives were read at about 46 µM; active = well fitted inhibition curve with a large enough effect; inconclusive = small, poorly fitted or top-dose-only effect, or effect the other way; inactive = flat fitted curve, though single readings scatter; tested in HEK293 cells; about a fifth of its hits are not listed in these tables; further: on the % scale 0 is the no-effect control and ±100 the full control effect; luciferase read-out
Cruzain inh noDet: qHTS Assay for Promiscuous and Specific Inhibitors of Cruzain (without detergent). purified cruzain, Z-FR-AMC fluorescence, no detergent. Potency, µM, for the others: max response, negative = inhibition, most hits filed as inhibitors. 200,000 compounds, 2.3% hits;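 further: plate controls were enzyme without inhibitor for no effect and buffer without enzyme for full effect; nearly all actives have a fitted effect of over 40% in size; top concentration of the series not given in the record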
Target sequence (P25779 123-467 limits assumed): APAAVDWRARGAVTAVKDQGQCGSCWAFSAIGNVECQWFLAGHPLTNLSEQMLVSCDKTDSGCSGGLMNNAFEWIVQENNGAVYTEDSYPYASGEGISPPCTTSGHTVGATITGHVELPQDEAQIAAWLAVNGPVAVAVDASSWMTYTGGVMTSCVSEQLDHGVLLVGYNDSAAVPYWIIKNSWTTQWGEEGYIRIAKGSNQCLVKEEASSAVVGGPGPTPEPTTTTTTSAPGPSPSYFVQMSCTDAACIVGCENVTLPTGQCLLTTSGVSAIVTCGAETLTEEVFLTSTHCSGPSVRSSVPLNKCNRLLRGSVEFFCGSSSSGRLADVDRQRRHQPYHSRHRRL
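Purified cruzain at 1.5 nM, pre-incubated 15 min with compound at room temperature in 100 mM sodium acetate pH 5.5, 5 mM DTT, 0.00005% Triton X-100. Reaction started with 2 uM Z-FR-AMC; AMC fluorescence increase over 60 s gives rate.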
Cruzain inh Det: qHTS Assay for Promiscuous and Specific Inhibitors of Cruzain (with detergent). purified cruzain, Z-FR-AMC fluorescence, 0.01% Triton. 200,000 compounds, 0.43% hits. Cruzipain (Trypanosoma cruzi), P25779. Potency, µM, for the others: max response, negative = inhibition, actives largely listed as inhibitors;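 further: plate controls were neutral wells for no effect and buffer without enzyme for full effect; nearly all actives have a fitted effect of over 40% in size; top concentration of the series not given in the record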
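Read-out: AMC fluorescence (360 nm excitation, 450 nm emission), four reads over 2 min, first-to-third difference used. Conditions: cruzain 1.5 nM, Z-FR-AMC 2 uM, pH 5.5 acetate, 5 mM DTT, 0.01% Triton X-100.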
SARS PLP yeast: qHTS of Yeast-based Assay for SARS-CoV PLP. S. cerevisiae expressing SARS-CoV PLpro, growth rescue; control for the full effect not named in the record. Potency, µM (top dose mostly 32.9 µM), without a hit: at the highest dose activity, positive = growth rescue. 330,000 compounds, 0.19% hits. AID 485353, 2010; active means well fitted rising curve with a large enough effect; inconclusive means small, poorly fitted or top-dose-only effect; inactive means no such curve, though single readings can be large or run the other way; further: 0% is about no effect; nearly all actives have a fitted effect of over 55% in size; growth read by luminescence after 48 h
NS1 inh: qHTS Assay for Inhibitors of Influenza NS1 Protein Function. 270,000 compounds, 0.4% hits. AID 2326, 2010. Potency, µM (titrated, usually from 46.1 µM), without a hit: at the top dose activity, positive = more growth. S. cerevisiae slowed by influenza A NS1, growth recovery by OD600; active means well fitted rising curve with a large enough effect; inconclusive means small, poorly fitted or top-dose-only effect; inactive means no such curve, though single readings can be large or run the other way; further: nearly all actives have a fitted effect of over 50% in size
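Recovery from NS1-induced slow growth read by OD600 in budding yeast switched to galactose assay medium (pH 6.0, -URA) at 1:100 dilution. Compound 23 nl per well; the matching strain lacking NS1 serves as control.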
StopGo reporter: High Throughput Screening for Foot and Mouth Disease Virus Antivirals | human cells with a luciferase reporter of 2A StopGo recoding; control for the full effect not named in the record | Potency, µM (titrated, usually from 57.9 µM), for inactives: top-dose signal change, negative = less light | 410,000 compounds, 1.2% hits | AID 1159524, 2015; active = well fitted falling curve with a large enough effect; inconclusive = small, poorly fitted or top-dose-only effect; inactive = no such curve, though single readings can be large or run the other way; tested in HEK293T cells; further: on the % scale 0 is the no-effect control and ±100 the full control effect; nearly all actives have a fitted effect of over 45% in size; luciferase light after 4 h
RE007 growth inh: qHTS Assay for Inhibitors of the HIV-1 protein Vpr | Potency, µM (doses to about 92.2 µM), without a hit: at the top dose activity change, negative = less growth | S. pombe RE007 Vpr strain, BacTiter-Glo ATP luminescence, 24 h; control for the full effect not named in the record | 360,000 compounds, 0.21% hits; active = well fitted falling curve with a large enough effect; inconclusive = small, poorly fitted or top-dose-only effect; inactive = no such curve, though single readings can be large or run the other way;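 further: on the % scale 0 is the no-effect control and ±100 the full control effect; nearly all actives have a fitted effect of over 50% in size; the assay follows cell death caused by Vpr and the record does not say whether a fall means rescue or toxicity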
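Fission yeast strain RE007, carrying one chromosomally integrated HIV-1 vpr copy, was seeded at OD 0.01 in PMG+AL medium with 23 nL pinned compound. After 24 h at 30 °C and 99% humidity, viability was read by BacTiter-Glo luminescence.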
Starred values were filed as active, the others as inactive; ? = inconclusive; . = not tested or not shown; [ ] = dose if it differs, or a comment. Unless noted, the call rests on the fitted dose curve; in most records, active means well fitted curve in the direction sought with a large enough effect; inconclusive means small, poorly fitted or top-dose-only effect, or another doubt; inactive means no such curve, though single readings can be large; an effect the other way counts as inactive or inconclusive. Potency means the concentration at half of the fitted maximal effect.

molecule	SARS PLP yeast	RE007 growth inh	Lassa entry inh	NS1 inh	Cruzain inh noDet	Cruzain inh Det	StopGo reporter	MARV entry inh
CCOCc1cnc(C)nc1NCC(=O)c1c(C)[nH]c2ccccc12	2%	155%	-5%	-8%	-13%	3.3%	18%	?
Cc1cccc2c1NC(=O)C21OCC(CO)([N+](=O)[O-])CO1 (stereo not given)	3%	-6%	24%[46.1 µM]	6%	.	.	-11%	?
CCCOc1ccc(C(=O)Nc2ccc3c(c2)OCO3)cc1	-2%	6%	.	-7%	.	.	38%[activator]	.
O=C(NCc1cccnc1)c1ccc(Cl)c(S(=O)(=O)N2CCCCCC2)c1	1%	-9%	?	.	.	.	?	?
Cc1ccc(/C=C/c2onc(C)c2S(=O)(=O)N2CCC(C(=O)Nc3ccc(OC(F)(F)F)cc3)CC2)cc1	.	.	1%[46.1 µM]	.	1%	0.1%	-4%	.
Cc1ccc(CNC(=O)C2CNc3cc(C)ccc3O2)cc1 (stereo not given)	0%	-10%	0%	1%	10%	1.1%	17%	13%
O=C(NCc1nnc(SCc2ccccc2)n1-c1ccccc1)C12CC3CC(CC(C3)C1)C2	3%	7%	-25%	-5%	3%	-2.5%	-21%	-24%
CCOc1ccc(OCCOC(=O)C2CCN(S(=O)(=O)c3ccc(C)c(C)c3)CC2)cc1	-8%	-4%	13%	.	.	.	-23%	2%
COc1ccccc1CNC(=O)CCNC(=O)c1ccco1	-3%	20%	4%	.	.	.	0%	-1%
CN1CCN(CCNC(=O)c2cnn(-c3ccc(F)cc3)c2C2CCN(C(=O)OC(C)(C)C)CC2)CC1	.	.	-13%[46.1 µM]	.	-3%	0.1%	-12%	.
CCOC(=O)c1cnc2c(OC)cccc2c1N1CC(C)CC(C)C1 (stereo not given)	0%	-6%	.	-6%	.	.	?	.
CC1CC(C)CN(CCCNC(=O)c2ccc(CNS(=O)(=O)c3ccc(F)cc3)cc2)C1 (stereo not given)	3%	-8%	4%[46.1 µM]	-8%	.	.	-16%	?
O=C(c1cnn(-c2ccc(Cl)cc2)c1)c1ccccc1O	1%	-13%	?	.	.	.	-17%	3.5µM*
O=C(Cn1cnc([N+](=O)[O-])n1)NCc1ccccc1	-4%	15%	2%	3.5µM*	-3%	3.5%	-8%	12%[46.1 µM]
CC(C)C(C(=O)O)N1CCS(=O)(=O)CC1 (stereo not given)	0%	-6%	22%	-3%	.	.	-5%	4%[46.1 µM]
CC(=O)N/C(=C\c1ccccc1)C(=O)NCC(=O)O	0%	-9%	2%	-8%	9%	-2.1%	-12%	3%
Cc1ccc(NC(=O)NC(=O)CSc2n[nH]c(N)n2)c(C)c1	5%	3%	-23%	.	.	.	22%	-12%
C=CCOc1ccc(/C=C\c2nc(O)c([N+](=O)[O-])c(=O)[nH]2)cc1OCC	3%	-9%	.	4%	.	.	-4%	.
CCCCCC(=O)Nc1ccc(C(=O)COC(=O)CN2C(=O)NC3(CCCC3)C2=O)cc1	-3%	-13%	5%	.	.	.	2%	2%
Cc1ccc(CN/C=C/C(=O)c2ccc(Br)cc2)cc1	-39%	-15%	-16%	-124%	2%	-4.7%	22%	18%
COc1cc(/C=N\NC(=O)c2ccc(Cl)cc2)ccc1Oc1ccc([N+](=O)[O-])cn1	0%	-6%	?	4%	.	.	?	-6%
COCCCNc1nc2nonc2nc1N1C[C@H]2CC[C@H]1C2	0%	3%	11%	1%	.	.	1%	1%[46.1 µM]
CCn1c(/C=C/Nc2ccccc2)[n+](CC)c2ccc(C(=O)OCC(F)(F)F)cc21	-6%	-9%	2%	-11%	-9%	-7.2%	-28%	-8%
O=C(Nc1ccc(N2CCCC2)cc1)c1cc(Br)ccc1Cl	-1%	-4%	-27%[46.1 µM]	20%	.	.	3%	?
CC(C)Sc1nnc(Nc2ccccc2)s1	3%	?	1%	-50%	-16%	-4.3%	18%	?
CCOC(=O)C1(Cc2ccc(Cl)cc2)CCN(C(C)Cc2ccc(O)c(OC)c2)CC1 (stereo not given)	0%	-4%	.	19%	.	.	?	.
C/C(=N\NC(=O)CNC(=O)c1ccccc1F)c1ccco1	1%	1%	28%	-1%	.	.	30%[activator]	21%[46.1 µM]
O=C(CC1C=CCC1)Nc1ccccc1 (stereo not given)	.	-6%	7%[46.1 µM]	.	.	.	34%[activator]	11%[46.1 µM]
CCOC(=O)C1(C)NC(c2ccccc2F)C2C(=O)N(c3cccc(C(C)=O)c3)C(=O)C21 (stereo not given)	-7%	?	?	-3%	-1%	4.9%	-3%	12%
COc1ccc(NC(=O)CNc2ccc(C#N)cc2)cc1	2%	15%	-15%[46.1 µM]	1%	.	.	9%	?
NC(=S)NNc1ccc(Cl)c(Cl)c1	-22%	11µM*	.	-63%	.	.	-16%	-10%
CCN(CCNC(=O)C1CCN(c2nnc(-n3cccc3)s2)CC1)c1ccccc1	-3%	7%	.	-79%	-3%	-0.3%	-24%	.
O=[N+]([O-])c1ccc(N2CCN(Cc3ccccc3)CC2)s1	0%	-20%	1%[46.1 µM]	-4%	.	.	-17%	16%[46.1 µM]
CCOc1ccccc1CNCc1c(C(=O)O)n(Cc2ccc(F)cc2)c2cc(C)ccc12	.	.	?	.	1%	-1.3%	-10%	.
Cc1c(C)n(Cc2ccc(F)cc2)c2ccc(C(=O)N3CCN(c4ccc(F)cc4)CC3)cc12	.	.	-3%[46.1 µM]	.	?	1.1%	-12%	.
Cc1ccccc1C(=O)NNC(=O)C(=O)Nc1cccc(Cl)c1C	-5%	-24%	2%	-3%	?	8.3%	-4%	-9%
COc1ccc(NC(=O)CSc2nc(-c3ccccc3)cc(-c3cc(OC)c(OC)c(OC)c3)c2C#N)c(OC)c1	.	.	?	.	-3%	-1.4%	-7%	.
COc1ccc(CNCc2ccc(OC)c3ccccc23)cc1	2%	-9%	20%[46.1 µM]	3%	.	.	-9%	?
CN(CCOc1ccc(Cl)cc1)C(=O)c1ccc(S(=O)(=O)N2CCOCC2)cc1	1%	2%	?	4%	.	.	?	?
O=C(Nc1ccc(Cl)cc1)N1CCOCC1	0%	13%	?	-13%	.	.	21%	0%
COc1cccc(NC(=O)CN(C)C(=O)Cn2c(=O)oc3ccccc32)c1	-3%	-13%	-3%	.	.	.	8%	6%
COc1ccc(C(=O)NCc2ccc3c(c2)OCO3)cc1	-1%	7%	26%	.	.	.	17%	?
COc1ccc(S(=O)(=O)N2CCOCC2)cc1NC(=O)c1ccc(-n2nc(C)cc2C)cc1	0%	4%	3%	-3%	.	.	-13%	-22%
CCN(CC)c1ccc(C(=O)N2CCc3c([nH]c4ccccc34)C2c2ccc(F)cc2)cc1 (stereo not given)	.	.	?	.	16µM*	0.5%	-4%	.
O=C1CC(N2CCN(c3ncccn3)CC2)C(=O)N1CCc1ccccc1 (stereo not given)	-1%	12%	3%	1%	.	.	-20%	4%
O=C1C2C3C=CC(CC3)C2C(=O)N1/N=C/c1ccco1 (stereo not given)	1%	-4%	.	.	.	.	37%[activator]	-1%[46.1 µM]
O=C(NCCOc1ccccc1)c1cncc(Br)c1	-5%	0%	8%	-7%	3%	0.2%	62%[activator]	9%
Clc1ccc(-c2csc(-c3cccnc3)n2)s1	-14%	-17%	.	-50%	.	.	67%[activator]	.
O=c1c(N2CCOCC2)nsn1Cc1ccccc1	-1%	-1%	-7%	6%	0%	-0.2%	12%	3%[46.1 µM]
O=S(=O)(Nc1cccc2[nH]ncc12)c1cccs1	0%	-5%	-2%	5%	.	.	-6%	?
CN(CCC#N)C(=S)Nc1ccc(Oc2ccccc2)cc1	-13%	-3%	-18%	16%	?	-1.7%	2%	1%
Cc1ccc(/C=C2\C(=N)N3N=C(CC(=O)N4CCCCC4)SC3=NC2=O)cc1	-4%	7%	.	-1%	.	.	-20%	.
CC(C)c1ccc(C(O)c2cnc(C(C)C)n2C)cc1 (stereo not given)	-3%	-5%	.	-2%	7%	1.0%	21%	.
CC1Cc2ccccc2N1C(=O)c1ccc(F)c(S(=O)(=O)N2CCOCC2)c1 (stereo not given)	-3%	0%	-1%	.	.	.	-7%	-8%
CCn1c(=O)cc(SCC(=O)N2CCN(c3cc(C)ccc3C)CC2)c2ccccc21	.	.	-25%[46.1 µM]	.	?	-1.4%	0%	-17%[46.1 µM]
CCC(Oc1cc(Cl)ccc1Cl)C(=O)N1CCC2(CC1)OCCO2 (stereo not given)	-1%	-2%	.	-14%	.	.	-14%	.
Cc1ccc(-c2nn(-c3ccccc3)cc2/C=C/C(=O)OCC(=O)NC2CC2)o1	2%	4%	-23%[46.1 µM]	.	.	.	?	?
Cc1ccc(C2=NNC(c3ccc(Cl)cc3)=Nc3ccccc32)o1	-1%	3%	-10%	?	13µM*	-6.2%	-22%	-14%
Cc1cccc(NS(=O)(=O)c2ccc(C(=O)NCC(C)(C)N3CCOCC3)cc2)c1C	0%	-10%	-18%	-4%	.	.	-22%	?
COC(=O)C1=C(C)N(Cc2ccc3c(c2)OCO3)C(=O)C1	-1%	-8%	-1%	8%	.	.	7%	9%[14.2 µM]
Cc1cccc(NC(=O)C2C3CCCCC32)c1 (stereo not given)	-4%	-1%	.	-4%	.	.	46%[activator]	.
Cc1cc2cc(CCNC(=O)c3c(-c4ccccc4Cl)noc3C)c(=O)[nH]c2cc1C	-2%	.	.	-108%	1%	-2.1%	.	.
Cn1cc(/C=C2\SC(=S)N(NC(=O)c3ccccc3)C2=O)c2ccccc21	6%	1%	-6%	-2%	?	-5.5%	31%[activator]	-1%

Screening data from PubChem BioAssay.
